# Screening results as filed in PubChem.
# MARV entry inh: qHTS for inhibitors of binding or entry into cells for Marburg Virus; Marburg virus pseudotyped entry inhibition, cell reporter; control for the full effect not named in the record; about a third of the inactives were read at about 46 µM; Potency, µM (highest dose often 37.8 µM), for the others: top-dose activity change, negative = inhibition, most hits filed as inhibitors; 300,000 tested, 1.8% active; AID 540276, 2011; active = well fitted inhibition curve with a large enough effect; inconclusive = small, poorly fitted or top-dose-only effect, or effect the other way; inactive = flat fitted curve, though single readings scatter; tested in HEK293 cells; about a fifth of its hits are not listed in these tables; also: % is scaled to controls: 0 for no effect and ±100 for the full control effect; luciferase read-out
# StopGo reporter: High Throughput Screening for Foot and Mouth Disease Virus Antivirals; human cells with a luciferase reporter of 2A StopGo recoding; control for the full effect not named in the record; Potency, µM (top dose mostly 57.9 µM), without a hit: at the top dose signal change, negative = less light; 410,000 tested, 1.2% active; active = well fitted falling curve with a large enough effect; inconclusive = small, poorly fitted or top-dose-only effect; inactive = no such curve, though single readings can be large or run the other way; tested in HEK293T cells; also: % is scaled to controls: 0 for no effect and ±100 for the full control effect; nearly all actives have a fitted effect of over 45% in size; luciferase light after 4 h
# LASV entry inh: qHTS for Inhibitors of binding or entry into cells for Lassa Virus; Lassa virus pseudotype entry inhibition, cell reporter; control for the full effect not named in the record; 300,000 tested, 1.2% active; Potency, µM (titrated, usually from 37.9 µM), inactives show at the highest dose activity change, negative = inhibition, hits mostly inhibitors; active means well fitted inhibition curve with a large enough effect; inconclusive means small, poorly fitted or top-dose-only effect, or effect the other way; inactive means flat fitted curve, though single readings scatter; tested in HEK293 cells; also: % is scaled to controls: 0 for no effect and ±100 for the full control effect; nearly all actives have a fitted effect of over 50% in size; luciferase read-out
# RE007 growth inh: qHTS Assay for Inhibitors of the HIV-1 protein Vpr. S. pombe RE007 Vpr strain, BacTiter-Glo ATP luminescence, 24 h; control for the full effect not named in the record. Potency, µM (top dose mostly 92.2 µM), for inactives: at the top dose activity change, negative = less growth. 360,000 tested, 0.21% active. AID 651644, 2012; active = well fitted falling curve with a large enough effect; inconclusive = small, poorly fitted or top-dose-only effect; inactive = no such curve, though single readings can be large or run the other way;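 also: % is scaled to controls: 0 for no effect and ±100 for the full control effect; nearly all actives have a fitted effect of over 50% in size; the assay follows cell death caused by Vpr and the record does not say whether a fall means rescue or toxicity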
#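 Fission yeast RE007 carrying one integrated HIV-1 vpr copy, seeded at OD 0.01 in PMG+AL medium with 23 nL pinned compound. Grown 24 h at 30 degrees; viability read by BacTiter-Glo luminescence after 5 min.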
# NS1 inh: qHTS Assay for Inhibitors of Influenza NS1 Protein Function; S. cerevisiae slowed by influenza A NS1, growth recovery by OD600; Potency, µM (series often up to 46.1 µM), without a hit: top-dose activity, positive = more growth; 270,000 tested, 0.4% active; AID 2326, 2010; also: actives are rising curves; nearly all actives have a fitted effect of over 50% in size
#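 S. cerevisiae expressing influenza A NS1, grown in glucose, washed, then diluted 1:100 into pH 6.0 -URA galactose medium with 23 nl compound. Growth recovery read as OD600; NS1-free strain serves as control.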
# Cruzain inh Det: qHTS Assay for Promiscuous and Specific Inhibitors of Cruzain (with detergent); purified cruzain, Z-FR-AMC fluorescence, 0.01% Triton; 200,000 tested, 0.43% active; Potency, µM, without a hit: max response, negative = inhibition, actives largely listed as inhibitors; Cruzipain (Trypanosoma cruzi), P25779; AID 1478, 2009; active = well fitted curve in the direction sought with a large enough effect; inconclusive = small, poorly fitted or top-dose-only effect, or another doubt; inactive = no such curve, though single readings can be large; an effect the other way counts as inactive or inconclusive;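 also: plate controls were neutral wells for no effect and buffer without enzyme for full effect; nearly all actives have a fitted effect of over 40% in size; top concentration of the series not given in the record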
# Target sequence (P25779 123-467 limits assumed): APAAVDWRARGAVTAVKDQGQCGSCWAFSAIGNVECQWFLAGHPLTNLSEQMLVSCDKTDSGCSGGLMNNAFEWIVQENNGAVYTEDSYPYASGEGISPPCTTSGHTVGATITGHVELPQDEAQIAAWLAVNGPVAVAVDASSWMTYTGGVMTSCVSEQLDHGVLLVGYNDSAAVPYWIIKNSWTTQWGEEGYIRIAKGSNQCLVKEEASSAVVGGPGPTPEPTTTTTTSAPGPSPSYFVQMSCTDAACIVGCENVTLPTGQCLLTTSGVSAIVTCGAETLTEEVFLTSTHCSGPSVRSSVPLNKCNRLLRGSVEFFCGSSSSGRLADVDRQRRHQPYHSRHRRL
#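 Steps: dispense cruzain (1.5 nM final) in acetate buffer pH 5.5 with DTT and 0.01% Triton X-100; pin-transfer compounds; incubate 15 min RT; add Z-FR-AMC (2 uM final); read fluorescence every 30 s, using the 60 s intensity change.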
# Cruzain inh noDet: qHTS Assay for Promiscuous and Specific Inhibitors of Cruzain (without detergent); Cruzipain (Trypanosoma cruzi), P25779; purified cruzain, Z-FR-AMC fluorescence, no detergent; Potency, µM, inactives show max response, negative = inhibition, most hits filed as inhibitors; 200,000 tested, 2.3% active; active = well fitted curve in the direction sought with a large enough effect; inconclusive = small, poorly fitted or top-dose-only effect, or another doubt; inactive = no such curve, though single readings can be large; an effect the other way counts as inactive or inconclusive;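 also: plate controls were enzyme without inhibitor for no effect and buffer without enzyme for full effect; nearly all actives have a fitted effect of over 40% in size; top concentration of the series not given in the record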
#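 Purified cruzain at 1.5 nM, pre-incubated 15 min with compound at room temperature in 100 mM sodium acetate pH 5.5, 5 mM DTT, 0.00005% Triton X-100. Reaction started with 2 uM Z-FR-AMC; AMC fluorescence increase over 60 s gives rate.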
# SARS PLpro yeast: qHTS of Yeast-based Assay for SARS-CoV PLP. AID 485353, 2010. S. cerevisiae expressing SARS-CoV PLpro, growth rescue; control for the full effect not named in the record. 330,000 tested, 0.19% active. Potency, µM (series often up to 32.9 µM), inactives show at the highest dose activity, positive = growth rescue; also: 0% is about no effect; nearly all actives have a fitted effect of over 55% in size; growth read by luminescence after 48 h
# * marks the source's active call; other numbers are inactive results; ? = inconclusive; . = no result given; & = joins results of further samples; [ ] = remark or other dose. Unless noted, calls follow the shape of the dose curve; as a rule, active means well fitted rising curve with a large enough effect; inconclusive means small, poorly fitted or top-dose-only effect; inactive means no such curve, though single readings can be large or run the other way. Potency is read from the fitted curve at half-maximal effect.
SMILES | MARV entry inh | StopGo reporter | LASV entry inh | RE007 growth inh | NS1 inh | Cruzain inh Det | Cruzain inh noDet | SARS PLpro yeast
CCn1c(SCC(=O)Nc2ccccc2OC)nc(O)cc1=O | . | -18% | . | 3% | ? | . | . | 1%
Cc1onc(-c2ccccc2)c1C(=O)Nc1ccc2c(c1)OCCO2 | 0% | . | -14% | 8% | -5% | -2.2% | -6% | -9%
CCOc1cccc(/C=C2/NC(=O)N(CC(=O)Nc3cccc(C)c3)C2=O)c1O | 4% | -10% | 8% | -9% | 4% | . | . | 1%
Cc1ccc(C(=O)O)cc1N1C(=O)CCCC1=O | -6%[46.1 µM] | -16% | -5% | 4% | 2% | . | . | 6%
Cc1cccc(C)c1OCC(=O)Nn1c(COc2ccccc2)nc2ccccc2c1=O | -25% | . | -12% | -3% | 11% | 3.5% | ? | 9%
FC(F)(F)c1ccc(CN2C[C@@H]3C(c4ccc(C(F)(F)F)cc4)C4(c5cccnc5)CC3(C4)[C@H]2c2ccccc2)cc1 (some centres not stated) | . | ? | . | -3% | 4% | 0.7% | -3% | 1%
CCOC(=O)c1sc(NC(=O)CCSC)nc1C | 13% | 30% | ? | -4% | -8% | 0.9% | 1% | -10%
CN(C#N)c1nc(N2CCOCC2)nc(N2CCOCC2)n1 | -15% | 2% | 9% | -6% | 9% | . | . | .
CCOc1ccccc1N1CCN(Cc2c(C)n(C)n(-c3ccccc3)c2=O)CC1 | -2%[46.1 µM] | 2% | 1% | -10% | 0% | . | . | -1%
COc1cc(S(=O)(=O)N2CCN=C2c2ccccc2)c(OC)cc1Cl | 28% | 14% | -19% | 5% | -2% | . | . | -1%
CCCC(C)n1[nH]c(=O)cc1N (configuration not stated) | 30% | -12% | 7% | -8% | 11% | -0.6% | -3% | -21%
O=C(CCCN1C(=O)/C(=C/c2ccccc2Cl)SC1=S)NCCCN1CCOCC1 | ? | ? | ? | -18% | 20% | . | . | 1%
Cc1ccc(C)c(Nc2cc(C)nc3ncnn23)c1 | 0% | -8% | ? | 11% | 7% | . | . | 1%
Cc1cc(NC(=O)CSc2nccn2-c2ccc(Cl)cc2)no1 | -1% | ? | 1% | 12% | -16% | 3.7% | 3% | 0%
N#Cc1c[nH]n2c(=O)c3c(nc12)CCCC3 | -7% | . | . | . | -7% | 0.6% | 9% | -2%
CC(=O)c1cccc(OCC(=O)N(C)CC(=O)Nc2ccc(F)cc2)c1 | . | 4% | . | 4% | -2% | . | . | -2%
CC1(C)Cc2c(cnn2-c2ccc(F)cc2)C(NC(=O)c2cnccn2)C1 (configuration not stated) | -7% | -12% | -6% | 51% | . | . | . | .
C/[N+]([O-])=C/c1c(OCc2ccc(Cl)cc2Cl)ccc2ccccc12 | 3%[46.1 µM] | 1% | -3% | -15% | 4% | . | . | 0%
Cc1ccccc1C(O)c1cccnc1 (configuration not stated) | 16% | -24% | 18% | 8% | -13% | 1.2% | 15% | 6%
O=C1SCC(c2ccc(Cl)cc2Cl)=NN1Cc1nnc(-c2ccccc2)o1 | ? | -16% | -2% | . | -4% | -1.9% | 16µM* | -19%
Cc1ccc(S(=O)(=O)NCC(=O)N(CC(=O)NCC2CCCO2)Cc2ccccc2)cc1 (configuration not stated) | -3%&-3%[46.1 µM] | -5% | -1% | -15% | -3% | 13% | -1% | -2%
CCc1ccc(C(=O)Nc2ccc(OC)c(S(=O)(=O)N3CCOCC3)c2)cc1 | 2%[46.1 µM] | ? | -23% | 0% | -5% | . | . | 1%
COC(=O)c1sc2ncccc2c1-n1c(C)ccc1C | 9%[46.1 µM] | -28% | 0%[46.1 µM] | . | . | -6.4% | -6% | .
Cc1ccc(CN2CC(C(=O)Nc3ncccc3C)CC2=O)cc1 (configuration not stated) | . | 42%[activator] | . | -5% | 3% | . | . | -2%
O=C(/C=C/c1ccc(Cl)cc1Cl)N(Cc1ccc(Cl)cc1)C1CCS(=O)(=O)C1 (configuration not stated) | ? | 0% | ? | . | -32% | -4.1% | -4% | 9%
Cc1[nH]n(-c2ccccc2)c(=O)c1N=Nc1cccc(S(=O)(=O)N2CCOCC2)c1 | -4% | -23% | . | 32% | 11% | -6.9% | 27% | 18%
CC(C)Oc1ccc(C(=O)N(Cc2ccco2)c2ccccn2)cc1 | 6%[46.1 µM] | 61%[activator] | -6%[46.1 µM] | . | . | -2.1% | 0% | .
O=C(CCN1C(=O)/C(=C/c2cccs2)SC1=S)NC1=NCCS1 | 9% | 4% | -4% | 5% | 14% | -9.2% | -4% | 3%
O=C(Cn1nc(C(=O)O)c2ccccc2c1=O)Nc1ccccc1C(F)(F)F | ? | 15% | . | 10% | 10% | . | . | 0%
CCOc1ccc(NC(=O)CN(C)C(=O)CN2C(=O)C3CC=CCC3C2=O)cc1OCC (configuration not stated) | -15%[46.1 µM] | -13% | 4% | 11% | . | . | . | -3%

# Overlap with the part before: seven compounds, then new ones.
SMILES | MARV entry inh | StopGo reporter | LASV entry inh | RE007 growth inh | NS1 inh | Cruzain inh Det | Cruzain inh noDet | SARS PLpro yeast
Cc1ccc(CN2CC(C(=O)Nc3ncccc3C)CC2=O)cc1 (configuration not stated) | . | 42%[activator] | . | -5% | 3% | . | . | -2%
O=C(/C=C/c1ccc(Cl)cc1Cl)N(Cc1ccc(Cl)cc1)C1CCS(=O)(=O)C1 (configuration not stated) | ? | 0% | ? | . | -32% | -4.1% | -4% | 9%
Cc1[nH]n(-c2ccccc2)c(=O)c1N=Nc1cccc(S(=O)(=O)N2CCOCC2)c1 | -4% | -23% | . | 32% | 11% | -6.9% | 27% | 18%
CC(C)Oc1ccc(C(=O)N(Cc2ccco2)c2ccccn2)cc1 | 6%[46.1 µM] | 61%[activator] | -6%[46.1 µM] | . | . | -2.1% | 0% | .
O=C(CCN1C(=O)/C(=C/c2cccs2)SC1=S)NC1=NCCS1 | 9% | 4% | -4% | 5% | 14% | -9.2% | -4% | 3%
O=C(Cn1nc(C(=O)O)c2ccccc2c1=O)Nc1ccccc1C(F)(F)F | ? | 15% | . | 10% | 10% | . | . | 0%
CCOc1ccc(NC(=O)CN(C)C(=O)CN2C(=O)C3CC=CCC3C2=O)cc1OCC (configuration not stated) | -15%[46.1 µM] | -13% | 4% | 11% | . | . | . | -3%
COc1ccc(NC(=O)CS(=O)CC(=O)Nc2ccc(-n3cnnn3)c(C)c2)cc1 (configuration not stated) | 17%[46.1 µM] | 12% | 0%[46.1 µM] | 12% | 4% | . | . | 9%
CC(C)(C)n1nc2c(c1NC(=O)c1ccc(Cl)c([N+](=O)[O-])c1)CS(=O)(=O)C2 | . | -19% | . | -6% | 4% | . | . | 2%
O=C(c1ccco1)N1CCN(c2nc3c(F)cc(F)cc3s2)CC1 | . | -5% | . | . | . | -12% | -13% | .
O=C(NNc1ncnc2c1cnn2-c1ccc(F)cc1)c1cccs1 | 4%[46.1 µM] | -3% | 9% | -6% | . | . | . | 5%
COC(=O)C1=C(C)N(CC2CC2)C(=O)N[C@H]1c1ccc(Br)cc1 | ? | -9% | -5% | 3% | -20% | 0.1%&-4.9% | -6%&-28% | -8%
Cc1ccc2nc(Nc3ncc4c(n3)CCCC4=O)nc(C)c2c1 | . | . | . | . | 6% | -2.1% | -1% | 7%
O=C(O)CCC(=O)Nc1nc2nccc(-c3ccccc3)n2n1 | -5% | 5% | 8% | 2% | -2% | . | . | 0%
Cn1c(/C(C#N)=C(\O)c2ccc([N+](=O)[O-])cc2)nc2ccccc21 | 3% | 1% | -2% | 1% | . | . | . | 1%
CCOC(=O)C(=O)NCC(c1cccs1)S(=O)(=O)c1ccc(C)cc1 (configuration not stated) | 21%[46.1 µM] | -6% | -20% | 17% | . | . | . | -4%
N#Cc1nc(/C=C/c2ccc(F)cc2)oc1NCc1ccc(F)cc1 | -4%[46.1 µM] | 39%[activator] | -3%[46.1 µM] | . | . | -0.3% | -5% | .
N#Cc1c(SCC(=O)Nc2nccs2)sc2c(O)cc(=O)[nH]c12 | 26%[46.1 µM] | 29% | ? | 10% | ? | . | . | -2%
O=c1c2ccccc2nc2n1CC/C2=C\N1CCN(c2ccc([N+](=O)[O-])cc2)CC1 | 6%[46.1 µM] | -27% | -17% | -2% | . | . | . | .
CCN1CCS/C1=C/C=C/C1=[N+](CC)CCS1 | 2.5µM* | ? | ? | ? | -3% | ? | -26% | -9%
O=C1c2ccccc2C(=O)N1OCc1ccccc1[N+](=O)[O-] | -11%[46.1 µM] | 8% | 9% | 1% | 5% | . | . | 1%
Cc1onc(-c2ccccc2Cl)c1C(=O)NC(=S)Nc1ccccc1F | . | -8% | . | 15% | 5% | . | . | -3%
CC1(C)CC(=O)C2=C(C1)OC(N)=C(C#N)[C@@H]2c1ccccc1[N+](=O)[O-] | -10%[46.1 µM] | -12% | -26%[46.1 µM] | -17% | 0% | . | . | 0%
Cc1ccc2nc(-c3ccc(N4C(=NC(=O)CCC(=O)O)SC5CS(=O)(=O)CC54)cc3)sc2c1 (configuration not stated) | ? | 68%[activator] | ? | 4% | 6% | -9.8% | 1% | 0%
COCCN(C(=O)COC(=O)c1c(-c2ccccc2)noc1C)c1c(N)n(Cc2ccccc2)c(=O)[nH]c1=O | 10%[46.1 µM] | 9% | -14%[46.1 µM] | 1% | -10% | . | . | -1%
